MT1-MMP act inh: MT1-MMP (human) activation inhibition; P50281; HT1080 RFP-PRO-GFP cells, GFP/RFP ratio fluorescence, overnight; percent of plate control window, DMSO zero; GFP/RFP ratio change, % at 20 µM; 360,000 tested, 0.061% active; AID 651647;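 active means GFP/RFP ratio change of at least 30% with cell ATP level not reduced by more than half and red fluorescence within 50% of control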; further: strong numbers were not always called active
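system = RFP-PRO-GFP reporter HT1080 cells | dosing = 20 µM single dose, 1% DMSO | timing = overnight cell settling, then overnight compound exposure, 37 °C, 5% CO2 | read-out basis = GFP/RFP fluorescence ratio | controls = DMSO and RFP-L50D-GFP cell wells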
Env fusion inh: blocks HIV Env-driven cell-cell fusion; HeLa-JRFL Env/CEM21 cell fusion, luciferase; inhibition, % at 12.3 µM; 360,000 tested, 1.1% active; AID 651610;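 active means mean replicate inhibition score of at least 50 and every replicate individually at or above 50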;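 further: 0% = plate neutral controls and 100% = maraviroc near 300 nM; one replicate is shown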
CSC inhib: blocks cancer stem cells | inhibition, % at 7.5 µM | 300,000 tested, 1.1% active | cancer stem cell-like cells viability, luminescence;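 active means mean at 75% or more and at least half the replicates too; tested in HMLE shEcad cells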;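 further: 0% = median of negative and 100% = median of positive control wells; the first replicate is given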
Rce1 inh: inhibitors of yeast Ras-converting enzyme. Q03530. yeast membranes, quenched prenylated peptide cleavage fluorescence. calls only. 290,000 tested, 0.27% active;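 active means fall in fluorescence gain of 50% or more versus controls, with final raw signal at or below 3038400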;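 further: plate controls were neutral control wells for no effect and wells lacking membranes for full effect; tested at 10 µM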
Target sequence (Q03530 whole entry, looked up): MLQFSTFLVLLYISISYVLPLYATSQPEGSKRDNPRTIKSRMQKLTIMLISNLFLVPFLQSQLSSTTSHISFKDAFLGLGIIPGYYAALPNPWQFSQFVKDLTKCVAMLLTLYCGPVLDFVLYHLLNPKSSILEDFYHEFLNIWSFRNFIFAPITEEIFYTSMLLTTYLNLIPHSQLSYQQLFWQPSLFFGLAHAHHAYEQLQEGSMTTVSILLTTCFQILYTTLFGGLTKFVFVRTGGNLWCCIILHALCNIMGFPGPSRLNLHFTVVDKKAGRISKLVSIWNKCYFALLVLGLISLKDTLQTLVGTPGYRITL
Yeast UUG start: modulators of start codon recognition fidelity in yeast | S. cerevisiae UUG-firefly luciferase reporter, luminescence/redox ratio | activity score, % at 18.7 µM | 350,000 tested, 0.13% active;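 active means replicate mean at a twofold rise or more, about +100% in these data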;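 further: firefly luciferase made from a UUG start codon reports start codon fidelity; reporter light over untreated wells divided by growth signal over untreated wells; some hits fall short of that in this replicate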
eIF4H inh: inhibitors of RNA binding by human eIF4H; Q15056; eIF4H fluorescence polarization binding assay; inhibition, % at 35 µM; 290,000 tested, 0.94% active;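 active means 50% or more with normal probe brightness, or confirmed in later tests; about a fifth of its hits are not listed in these tables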;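 further: calls also rest on retests at 20 µM and on dose response follow-up; 0% = protein and probe with vehicle and 100% = probe without protein; strong numbers were not always called active; many hits fall short of the cut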
PABP polyA inh: PABP-poly(A) binding inhibition | P11940 | PABP-poly(A) RNA binding, fluorescence polarization | inhibition, % at 35 µM | 290,000 tested, 1% active | AID 2014;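 active means 50% or more with normal probe brightness, or confirmed in later tests; about a fifth of its hits are not listed in these tables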;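 further: calls also rest on retests at 20 µM and on dose response follow-up; controls were probe without protein and protein plus probe with vehicle; some compounds called inactive have numbers as strong as hits; many hits fall short of the cut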
Target sequence (P11940 whole entry, looked up): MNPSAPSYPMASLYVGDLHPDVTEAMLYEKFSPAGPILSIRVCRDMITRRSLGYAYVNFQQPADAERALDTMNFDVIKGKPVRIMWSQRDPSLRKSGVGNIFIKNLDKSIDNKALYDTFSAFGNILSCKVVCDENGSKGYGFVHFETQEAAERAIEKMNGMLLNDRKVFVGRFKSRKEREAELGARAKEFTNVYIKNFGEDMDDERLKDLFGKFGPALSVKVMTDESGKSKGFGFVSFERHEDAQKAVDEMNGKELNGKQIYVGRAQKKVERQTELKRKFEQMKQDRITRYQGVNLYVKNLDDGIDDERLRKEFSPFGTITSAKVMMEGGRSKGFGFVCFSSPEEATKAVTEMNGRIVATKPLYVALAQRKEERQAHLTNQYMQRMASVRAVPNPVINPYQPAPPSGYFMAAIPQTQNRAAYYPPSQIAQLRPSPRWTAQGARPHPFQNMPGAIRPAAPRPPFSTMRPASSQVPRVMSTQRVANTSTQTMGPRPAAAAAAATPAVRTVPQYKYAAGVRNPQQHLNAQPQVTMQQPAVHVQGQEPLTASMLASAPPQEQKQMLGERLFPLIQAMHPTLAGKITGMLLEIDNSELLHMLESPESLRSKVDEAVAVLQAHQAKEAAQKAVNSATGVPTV
MT1-MMP act inh RFP: recorded beside MT1-MMP act inh, whose call it bears; RFP signal change, %; measured here: RFP expression control read;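 0 = vehicle wells; hits needed this value within 50% of zero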
* marks the source's active call; other numbers are inactive results; i = inactive; x = not tested or not shown; & = joins results of further samples; [ ] = remark or other dose. These rows are one share of the data, so the mix of outcomes need not match the whole.

SMILES	MT1-MMP act inh	MT1-MMP act inh RFP	Env fusion inh	CSC inhib	Rce1 inh	Yeast UUG start	eIF4H inh	PABP polyA inh
O=C(COC(=O)c1ccccc1Br)NCC1CCCCC1	-0.1	3.0	15.8	0.9	x	-6.0	x	x
COc1ccc(N(CC(=O)NCCSC2CCCCC2)S(=O)(=O)c2ccc(C)cc2)cc1	-0.8	-5.3	33.2	1.4	i	-9.3	3.5	2.0
Cn1c(=O)c2c(ncn2CC(=O)N2CCN(S(=O)(=O)c3ccc(Cl)cc3)CC2)n(C)c1=O	-1.8	2.9	x	8.3	i	4.8	-3.3	3.0
Cc1ccc(NC(=O)CN2C(=O)C3CCCCN3C(=O)c3ccccc32)cc1 (stereo not given)	3.6	3.1	x	-11.0	i	11.0	-11.5	-10.8
Cc1cc(NC(=O)c2cccnc2Cl)ccc1NC(=O)c1cc2ccccc2o1	5.1	-5.4	11.2	1.9	i	-23.1	1.3	9.1
Cc1ccccc1NC(=O)Cc1nc(COC(=O)COc2ccc(C(C)(C)C)cc2)cs1	-0.9	4.0	3.6	x	x	-0.4	x	x
CCc1cccc2c(N=O)c(O)[nH]c12	-0.6	1.4	-19.5	1.9	i	-6.3	-1.2	17.1
C=CCOc1ccc(CN(C)CC(O)COc2cccc3ccccc23)cc1 (stereo not given)	-0.5	2.2	-0.5	29.5	x	-3.8	5.2	12.8
Cc1cc(C(=O)OCC(=O)c2ccc(Br)s2)c(C)o1	x	x	x	-8.3	i	x	70.0*	87.4*
CCCc1cnc(N2CCN(C(=O)c3ccc(F)cc3)CC2)nc1	-2.3	-12.8	3.6	-16.1	i	-0.4	-3.7	-1.7
C/C(=N\Nc1cc(C(F)(F)F)ccc1Cl)c1ccncc1	-4.5	-2.1	1.4	43.3	i	-6.0	2.8	-6.3
CCc1nn(CC(=O)NCCCN(CC)c2cccc(C)c2)c(=O)c2cc3occc3n12	x	x	x	-14.7	i	x	2.2	-3.4
COc1ccccc1S(=O)(=O)Cc1ccc(C(=O)NCc2ccco2)o1	-0.8	1.7	-2.4	-12.4	i	x	-12.0	3.2
COc1ccc(S(=O)(=O)Nc2cc(C(=O)NC(C)C)ccc2N2CCOCC2)cc1	-0.6	-7.9	x	12.2	i	x	4.9	-1.3
Cc1ccc(S(=O)(=O)c2cc3c(=O)n4cccc(C)c4nc3n(CC3CCCO3)c2=N)cc1C (stereo not given)	2.1	2.4	10.0	2.9	i	x	-4.5	-0.8
O=C(N/N=C\C=C\c1ccc2c(c1)OCO2)C1COc2cc3ccccc3cc2O1 (stereo not given)	2.5	-5.1	x	-1.1	i	-17.7	19.2	-1.7
O=C(NCCN1CCCCC1)c1ccc(F)cc1Cl	-3.0	-1.8	-47.2	-2.9	i	-16.3	1.5	9.8
CC(OC(=O)CCCN=C1NS(=O)(=O)c2ccccc21)C(=O)Nc1ccc(F)cc1Cl (stereo not given)	0.1	-1.7	5.4	-0.4	i	-13.5	x	x
COc1ccc(NC(=O)CN(c2ccc(OC)cc2)S(=O)(=O)c2ccc(OC)c(OC)c2)cc1	-3.1	-6.2	1.7	-9.6	i	-17.5	-2.9	3.0
Cc1ccc(-c2noc(-c3cc4ccccc4oc3=O)n2)cc1	-4.2	0.4	x	-6.7	i	-16.3	-9.1	-1.7
Cn1c(=O)n(CC(=O)NCC2CCCO2)c(=O)c2c3c(sc21)COC(C)(C)C3 (stereo not given)	4.5	4.9	-4.1	-0.9	i	-11.8	-13.7	-0.4
CCOC(=O)N1CCN(c2c(NCC3CCCO3)c(=O)c2=O)CC1 (stereo not given)	1.5	6.0	11.5	7.8	i	-6.5	1.5	4.7
COc1ccc(-c2nnc(N(C)C(=O)c3ccno3)s2)cc1	-2.5	0.8	x	2.7	i	-18.8	0.4	-5.1
O=C(Cc1ccccc1)N/N=C\c1ccc(Br)o1	0.3	1.6	x	x	x	x	-0.3	-2.2
C=C1CCN(C(CC(C)C)C(=O)OC)S(=O)(=O)c2ccccc21 (stereo not given)	0.6	-0.6	21.7	4.6	i	-1.4	4.9	-5.9
(listing goes on)
SMILES	MT1-MMP act inh	MT1-MMP act inh RFP	Env fusion inh	CSC inhib	Rce1 inh	Yeast UUG start	eIF4H inh	PABP polyA inh
Cc1ccc(Cl)cc1N1CCN(C(=S)NCc2ccco2)CC1	0.2	-3.6	-1.9	-10.7	i	x	-2.0	-5.7
COc1ccc(CN(Cc2cc3cccc(C)c3[nH]c2=O)C(=O)N(C)C)cc1	-0.5	3.0	-17.6	-15.8	i	x	-3.1	6.2
Cc1ccc(NC(=O)/C(=C\c2ccccc2)NC(=O)/C=C/c2ccccc2)cc1	0.3	-4.8	-59.0	-15.1	i	-18.7	4.1	3.2
Cc1cc(NC(=O)C23CC4CC(C2)CC(n2cnc([N+](=O)[O-])n2)(C4)C3)no1	-0.8	2.2	18.2	-14.5	x	-15.8	7.3	0.2
CCOC(=O)c1cc(C(=O)OCC)cc(-n2c(C)cc(C(=O)CN3CCOCC3)c2C)c1	-3.5	-0.6	x	-4.2	i	x	4.8	5.9
COCCn1c(SCC(=O)NCCCN2CCCC2=O)nc2ccccc2c1=O	0.4	-1.4	24.9	-16.6	x	-6.7	x	x
CC(=O)Nc1ccccc1NC(=O)c1cccc2ccccc12	-0.3	3.4	21.3	-0.7	i	x	3.5	5.3
Cc1ccc(C(=O)Nc2cccc(C(=O)N/N=C/c3ccccc3F)c2)cc1	1.8	1.0	8.8	0.4	x	1.5	-6.8	2.0
COC(=O)Cn1c2ccc(C)cc2c2nc3ccccc3nc21	0.4	2.3	-7.7	x	i	-17.8	-3.6	1.0
Cc1ccc(S(=O)(=O)N2CCN(C(=O)C(C)Cn3nc(C)c(C)c3C)CC2)cc1C (stereo not given)	0.1	4.6	1.8	9.0	x	-4.5	8.3	9.5
O=C(NCCCN1CCOCC1)c1cc2c(=O)[nH]c3ccccc3c2s1	6.2	5.9	-81.8	-14.7	i	-1.7	-0.5	-2.9
Cc1nc2c(-c3ccc(F)cc3)c(C)nn2c(C)c1CCC(=O)Nc1ccc(F)cc1F	0.6	-1.9	36.3	7.6	i	-6.1	-7.0	-0.5
Cc1ccc(-c2nc(C)sc2CC(=O)Nc2cccc(C)c2C)cc1	-1.2	0.9	21.4	-5.9	i	x	-5.4	1.6
COc1ccc(OC)c(N(CC(=O)Nc2cccnc2)S(=O)(=O)c2ccc(OC)c(OC)c2)c1	1.3	4.4	x	-10.3	i	-5.5	-0.3	10.4
O=C(/C=C/c1c(Cl)cccc1Cl)NCCCn1ccnc1	2.3	0.7	7.7	-31.5	x	-13.8	x	x
O=C(COc1ccc(Cl)cc1Cl)Nc1ccc(-c2ccc(N3CCOCC3)nn2)cc1	-6.9	-4.8	9.3	x	i	-28.1	x	x
Cc1ccc(C2CC(=O)c3cnc(N4CCN(c5ccccc5)CC4)nc3C2)cc1 (stereo not given)	3.8	-6.7	-54.1	11.0	i	-13.5	11.5	1.8
O=S(=O)(Nc1ncccn1)c1ccc(NS(=O)(=O)c2cccc(Cl)c2Cl)cc1	-0.5	0.0	-6.0	-2.2	i	x	-0.3	-7.2
Cc1cc2nc3c(c(C(F)(F)F)n2n1)CCCC3	x	x	-12.7	-8.9	i	x	-6.5	-1.1
O=C(O)C1=C[C@H](c2ccc3c(c2)OCO3)C[C@H](OCCCCO)O1	-1.9	-2.1	14.9[16.7 µM]	-9.8	i	-4.1&-1.7	x	x
O=C(CN(Cc1cccs1)C(=O)CCC(=O)Nc1ccccn1)NCc1ccccc1	5.4	2.6	-4.8	-38.4	i	x	-1.2	5.3
CCn1c2ccccc2c2nnc(NN)nc21	14.5	14.8	-23.8	2.0	i	x	-6.8	-10.7
CCCN1CCC(=O)N([C@H](CSc2ccccc2)Cc2ccccc2)CC1	6.3	5.5	-21.0	0.4	i	-1.8	1.2	-1.5
Nc1nnc(SCC(=O)N2CCc3ccccc32)n1-c1ccccc1	0.1	1.5	-11.3	1.6	i	x	6.4	6.4
Cn1nnnc1Sc1ncnc2scc(-c3cccc(S(C)(=O)=O)c3)c12	-22.3	-28.3	-303.0	39.3	x	-16.6	x	x

Part of the list above, limited to MT1-MMP act inh, eIF4H inh and Yeast UUG start:
mol	MT1-MMP act inh	eIF4H inh	Yeast UUG start
Cc1ccc(C(=O)Nc2cccc(C(=O)N/N=C/c3ccccc3F)c2)cc1	1.8	-6.8	1.5
COC(=O)Cn1c2ccc(C)cc2c2nc3ccccc3nc21	0.4	-3.6	-17.8
Cc1ccc(S(=O)(=O)N2CCN(C(=O)C(C)Cn3nc(C)c(C)c3C)CC2)cc1C (stereo not given)	0.1	8.3	-4.5

Carrying on.
SMILES	MT1-MMP act inh	MT1-MMP act inh RFP	Env fusion inh	CSC inhib	Rce1 inh	Yeast UUG start	eIF4H inh	PABP polyA inh
O=C(COC(=O)Cc1c(Cl)cccc1Cl)Nc1ccc(OC(F)(F)F)cc1	2.3	4.7	14.1	-14.0	i	x	-5.5	5.7
CCC/C(=N\NC(=O)C1CC1)c1ccccc1	-0.9	-2.3	1.9	-12.8	i	-0.3	x	x
CCOC(=O)C1=CCN(S(=O)(=O)c2ccccc2C)C1c1ccc(C)cc1 (stereo not given)	0.9	0.2	5.9	x	x	12.3	x	x
CCCC#Cc1ccc2c(c1)COc1c3ccccc3nn1-2	-2.7	-1.9	-362.2	25.8	i	-40.7	x	x
Cc1ccc(/C=C/S(=O)(=O)N2CCC(C(=O)O)CC2)cc1	-0.9	2.6	-3.9	-4.9	i	x	-3.4	4.4
CCCCn1c(-c2nonc2N)nc2ccccc21	-11.7	-6.3	5.1	30.2	i	-22.5	3.5	2.6
Fc1ccc(N2CCN(Cc3c[nH]c4ccccc34)CC2)cc1	x	x	x	-2.8	i	x	-1.9	16.5
O=C(C=Cc1ccc2c(c1)OCO2)OCC=Cc1ccc2c(c1)OCO2	-3.0	5.3	0.0	x	x	-3.6	x	x
Cc1ccc(C(=O)N(c2c(C)n(C)n(-c3ccccc3)c2=O)C(C)C)cc1	-1.5	1.1	x	12.5	i	3.8	-2.5	1.4
O=C(c1noc2c1CCCC2)N1CCN(Cc2ccccc2)CC1	-2.2	-0.5	x	-9.2	i	x	-8.9	4.0
C[C@@H]1CN([C@@H](C)CO)C(=O)CCCn2nncc2CO[C@H]1CN(C)C	-1.3	-1.0	-0.3	x	x	-13.9&-3.1	x	x
COCCCNC(=S)N1CCN(C(c2ccccc2)c2ccccc2)CC1	-6.7	-0.1	-2.2	0.9	i	-11.9	27.7	-1.5
O=C(c1ccc(S(=O)(=O)N2CCCCC2)cc1)N1CCCc2ccccc21	-7.5	-8.0	-15.7	-8.2	i	x	-5.5	1.3
CCN(CC)S(=O)(=O)c1cc(C(=O)N(C)CC(=O)Nc2ccc(Cl)cc2)ccc1Cl	-1.6	-1.5	21.8	5.1	i	x	-8.5	-2.9
NC(=O)c1ccccc1NC(=O)CSc1cn[nH]n1	-1.6	2.5	-2.6	-2.6	i	x	2.1	-2.3
O=C(Oc1ccccc1)c1ccc(NC(=O)c2ccco2)cc1	0.1	2.6	1.0	-4.2	i	-18.0	-5.2	21.3
O=C(CSc1nnnn1C1CCCCC1)N1c2ccccc2Sc2ccccc21	-3.5	-10.9	-77.5	-6.7	i	43.5	1.7	12.9
Cc1cc(C)nc(-n2nc(C)cc2NC(=O)CN2CCCC2)n1	-2.6	0.2	-17.7	-9.6	i	x	-3.3	-5.5
Cc1ccc(NCCc2ccc(C)nc2)cc1	4.8	2.2	x	-1.7	i	-6.3	-4.7	2.2
CCN(CC)C(=O)c1[nH]cnc1C(=O)N[C@@H](C)C(=O)OC(C)(C)C	3.7	3.5	-5.7	4.3	i	-12.7	1.9	-4.0
O=C(CCCn1c(=O)[nH]c2ccccc2c1=O)Nc1ccc(F)cc1	4.5	4.0	-20.6	19.7	x	-2.6	-8.4	-6.6
